Source: PubChem (National Center for Advancing Translational Sciences (NCATS))
TRPML1 inh – inhibitors of human TRPML1 channel | TRPML1-inducible cells, Ca2+ dye fluorescence, FDSS; hits give low values; inhibition of EC80 agonist-evoked calcium signal | AID 624415 | activity change, negative = inhibition, % (no concentration beside the values) | 390,000 compounds, 0.02% hits; in the data active means activity change below about -50%; inconclusive means about -30% to -50%; inactive means above about -30%;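 also: stimulus is agonist 54-4 at its EC80 concentration; % is scaled to controls: 0 for no effect and ±100 for the full control effect; compound concentration not given in the record; the text of the record puts the active cut at -80%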
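Tet-induced TRPML1-DL cells loaded with Ca8 no-wash calcium dye were read kinetically on FDSS. Compound addition was followed by EC80 agonist 54-4 (4 uM final); inhibition was read over 110 s.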
CtBP-E1A blk – CtBP/E1A binding inhibition | AlphaScreen GST-E1A/His-CtBP binding, 1536-well; hits give low values; control for the full effect not named in the record | activity change, % (test concentration not listed) | 340,000 compounds, 0.49% hits; in the data active means activity change below about -65%; inconclusive means about -30% to -65%; inactive means above about -30%; also: % is scaled to controls: 0 for no effect and ±100 for the full control effect
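Protein mix (5X: 125 nM each GST-E1A, His-CtBP) was incubated with pinned compound 2 h at 37 deg C in dark, in 50 mM Tris pH 8.0 buffer with 300 mM NaCl. Glutathione donor and nickel acceptor beads followed; AlphaScreen signal read after 1 h.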
Six1-Eya2 inh – inhibitors of human Six1/Eya2 interaction. AlphaScreen GST-Six1/His-Eya2 binding, biochemical; hits give low values; control for the full effect not named in the record. 360,000 compounds, 0.56% hits. activity change, % (no concentration beside the values). Q15475+O00167; in the data active = activity change below about -65%; inconclusive = about -30% to -65%; inactive = above about -30%; also: % is scaled to controls: 0 for no effect and ±100 for the full control effect
Target sequence (O00167 whole entry, looked up): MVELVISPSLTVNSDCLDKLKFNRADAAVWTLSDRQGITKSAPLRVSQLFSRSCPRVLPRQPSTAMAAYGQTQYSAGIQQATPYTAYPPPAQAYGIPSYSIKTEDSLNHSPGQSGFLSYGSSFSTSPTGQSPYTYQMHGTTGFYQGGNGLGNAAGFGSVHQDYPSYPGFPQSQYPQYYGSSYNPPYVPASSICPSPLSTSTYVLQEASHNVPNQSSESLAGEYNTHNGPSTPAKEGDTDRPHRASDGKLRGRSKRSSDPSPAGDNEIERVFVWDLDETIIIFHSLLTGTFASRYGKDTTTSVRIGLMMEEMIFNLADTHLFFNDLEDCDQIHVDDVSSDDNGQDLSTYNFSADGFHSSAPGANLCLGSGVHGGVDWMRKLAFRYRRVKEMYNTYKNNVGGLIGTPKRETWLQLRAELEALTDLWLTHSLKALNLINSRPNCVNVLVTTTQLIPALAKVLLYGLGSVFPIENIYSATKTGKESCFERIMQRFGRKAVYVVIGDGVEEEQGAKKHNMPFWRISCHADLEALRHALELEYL
Target sequence (Q15475 whole entry, looked up): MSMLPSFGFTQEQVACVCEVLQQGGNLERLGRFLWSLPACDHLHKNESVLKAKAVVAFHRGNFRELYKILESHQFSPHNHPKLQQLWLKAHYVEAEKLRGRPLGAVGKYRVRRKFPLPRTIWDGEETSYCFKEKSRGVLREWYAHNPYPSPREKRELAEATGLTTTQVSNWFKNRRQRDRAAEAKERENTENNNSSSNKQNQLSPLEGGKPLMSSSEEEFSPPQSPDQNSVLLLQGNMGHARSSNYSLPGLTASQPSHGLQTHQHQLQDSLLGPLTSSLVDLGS
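Six1/Eya2 binding was read as AlphaScreen signal after compounds were pinned into GST-Six1 plus His-tagged Eya2 (5X stock 250/500 nM) in pH 8.0 Tris/NaCl/TCEP buffer, beads added, then incubated 1 h, 37 C, dark.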
TRPV1 PAM – enhances activation of the human vanilloid receptor TRPV1; TRPV1-expressing cells, Fluo-8 calcium influx, capsaicin EC20 potentiation; host cell line not named in the record; control for the full effect not named in the record; potentiation, % at 8.33 µM; 320,000 compounds, 0.02% hits; active means potentiation above 80%; inconclusive means 30% to 80%; inactive means below 30%; also: 0% is about no effect
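TRPV1-expressing cells were cultured overnight at 35.5C and loaded with Fluo-8 calcium dye for 40 to 90 min at room temperature. After a 10 s baseline, compound was added and calcium influx was read kinetically for 3 min (ex 480/em 520 nm).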
TRPML1 agonist – agonists of human TRPML1 channel | Q9GZU1 | TRPML1-expressing cells, Ca2+ dye fluorescence, FDSS; host cell line not named in the record; reference of the full effect not given here | activation, % (test concentration not listed) | 410,000 compounds, 0.12% hits; in the data active = activation above about 50%; inconclusive = about 30% to 50%; inactive = below about 30%; also: 0% is about no effect; the text of the record puts the active cut at 80%
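Calcium fluorescence on an FDSS kinetic reader gave the read-out. Tet-induced TRPML1-DL cells were plated overnight, dye-loaded (Ca8 with quencher, 45-90 min, room temperature, dark), then read 110 s after compound addition, and again 110 s after 4uM final 54-4 (EC80).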
D2 PAM – potentiates the human D2 dopamine receptor allosterically | P14416 | DiscoveRx D2 beta-arrestin cells, luminescence, 90 min; 100% = 57 uM dopamine signal | potentiation, % (test concentration not listed) | 360,000 compounds, 0.23% hits | AID 624464; active = potentiation of 50% or more; inconclusive = 30% to 50%; inactive = 30% or less;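 also: compound concentration not given in the record; tested on top of an EC20 dose of dopamine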
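D2 cells co-treated with compound plus 50 nM dopamine (EC20) for 90 min at 37 deg C to detect potentiation. Beta-arrestin recruitment was read as enzyme-fragment luminescence after 1 h at ambient temperature. Full response was set by 57 uM dopamine.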
The depositor's hits bear a star; ? = inconclusive; . = not tested or not shown; & = joins results of further samples.

SMILES	TRPML1 inh	CtBP-E1A blk	Six1-Eya2 inh	TRPV1 PAM	TRPML1 agonist	D2 PAM
COc1ccc(OCC(=O)Nc2ccccc2C(=O)NC(C)C)cc1	4	1	8	0	-0.4	-10
COc1ccc(S(=O)(=O)NC(CC(=O)O)c2ccco2)cc1 (stereo not given)	-8	-3	-1	5	-0.1	-3
O=C(CN1C(=O)c2cccc3cccc1c23)Nc1ccc(S(=O)(=O)Nc2nccs2)cc1	9	-26	-26	-7	19	-1
CCC(C)NC(=O)CSc1n[nH]c(=O)n1CCc1ccccc1 (stereo not given)	-2	-1	11	-12	0.9	1
Cc1ccc(S(=O)(=O)NC(C)(C)CN2CCCCC2)cc1	.	.	0	-6	.	-27
Cn1c(=O)c2c(nc(NCc3ccc4c(c3)OCO4)n2Cc2ccccc2)n(C)c1=O	13	-17	-16	-6	0.4	?
CCC(C)(C)C(=O)Nc1cc([N+](=O)[O-])ccc1Cl	6	-7	-7	-6	-0.6	-19
COCC(=O)Nc1cccc2ccccc12	5	5	1	.	-0.7	8
O=C(COc1ccccc1F)Nc1ccc(S(=O)(=O)Nc2nccs2)cc1	-4	-21	-15	9	0.6	1
CCOC(=O)C1=CN(Cc2cccc(F)c2)S(=O)(=O)NC1c1ccc(F)c(Cl)c1 (stereo not given)	67	4	6	.	0.0	-2
Fc1ccc(-n2nnc(-c3cccnc3Cl)n2)cc1	-19	9	14	-2	0.2	-2
CC(C)(C)OC(=O)C(C(=O)OC(C)(C)C)c1ccc(Cl)nn1	19	1	-1	-7	-0.1	-7

In a second layout: 2 of the compounds above
Compound: Fc1ccc(-n2nnc(-c3cccnc3Cl)n2)cc1
  TRPML1 inh: -19	CtBP-E1A blk: 9	Six1-Eya2 inh: 14	TRPV1 PAM: -2	TRPML1 agonist: 0.2	D2 PAM: -2
Compound: CC(C)(C)OC(=O)C(C(=O)OC(C)(C)C)c1ccc(Cl)nn1
  TRPML1 inh: 19	CtBP-E1A blk: 1	Six1-Eya2 inh: -1	TRPV1 PAM: -7	TRPML1 agonist: -0.1	D2 PAM: -7

Further structures follow:
SMILES	TRPML1 inh	CtBP-E1A blk	Six1-Eya2 inh	TRPV1 PAM	TRPML1 agonist	D2 PAM
C#CCOc1c(Cl)cc(/C=N/O)cc1OC	4	5	10	13	-0.4	-7
CN1CCN(S(=O)(=O)c2ccc(NC(=O)c3ccc(Br)o3)cc2)CC1	-6	-15	-16	-3	-0.4	-16
CCCc1nc2ccccc2c(=O)n1NC(=O)c1c(O)c2cccc3c2n(c1=O)CCC3	10	8	2	20	-0.5	16
COc1ccc(C2CC(=O)c3cc(OC)c(OC)cc32)cc1OC (stereo not given)	-7	-1	10	0	-0.6	-7
COc1ccccc1N1C(=O)C2C(C(=O)c3ccccc3)=NN(c3ccccc3OC)C2C1=O (stereo not given)	0	1	6	-13	14	-8
CCOCCCNC(=O)c1cn(C)c2ccc(S(=O)(=O)N3CCCCC3)cc2c1=O	12	-5	10	3	0.5	-14
O=C(NCc1ccco1)NC12CC3CC(CC(C3)C1)C2	19	0	1	13	-1.0	-3
COC(=O)c1ccc(CSc2ncn[nH]2)o1	-6	4	5	-18	0.5	-4
COc1ccc(NC(=O)c2oc3ccccc3c2C)cn1	7	-1	2	?	1.3	-10
FC(F)(F)c1nnc2ccc(N3CCCCC3)nn12	-5	6	12	.	-0.1	-5
CC(C)(C)NC(=S)N/N=C/c1c(Cl)cccc1Cl	5	.	-1	-13	-0.7	-18
C=CCSc1nc2sc(C)c(C)c2c(=O)[nH]1	14	1	0	16	-0.9	-7
C=CCn1c(SCC(=O)Nc2sccc2C(N)=O)nc2sc(CC)cc2c1=O	0	-5	-1	11	1.2	14
COc1ccc(OC)c(NC(=O)COC(=O)c2ccc(OC)c(S(=O)(=O)N3CCCC3)c2)c1	7	9	-1	5	-0.2	-25
COC(=O)c1ccc(/C=C2\N=C(SC)SC2=O)cc1	1	1	2	-11	0.5	-3
O=C(c1cc(C2CC2)on1)N1CCOCC1	-2	-2	3	.	-0.5	-4
CC(C)Nc1nc(NC(C)C)nc(Oc2ccc(OCc3ccccc3)nn2)n1	10	3	2	8	-0.4	-2
COc1cc(OC)cc(C(=O)Nc2ccc(-c3nc4ccccc4o3)cc2)c1	-1	4	8	2	1.3	2
Cn1c(CN2CCOCC2)nnc1SCC(=O)Nc1ccc2c(c1)OCCO2	-17	4	1	-18	0.8	-2
CCN1CCN(Cc2c3ccccc3cc3ccccc23)CC1	-3	-1	2	7	0.0	-15
Cc1ccc(CN=Cc2[nH]c3ccc(Br)c(Cl)c3c2O)cc1	1	-3	-7	-7	4.2	-23
O=C(Nc1cccnc1)c1sc2cccc(F)c2c1Cl	6	-21	-6	-11	-0.1	1
CSCCC(NC(=O)c1ccccc1)C(=O)NNC(=O)c1ccccc1 (stereo not given)	3	-23	-8	.	-0.5	-5
O=C(NCc1ccco1)C(c1ccccc1)N(CC1CCCO1)C(=O)Cn1nnc2ccccc21 (stereo not given)	-3	-5	0	3	-0.7	-6

Compound profiles, as listed above. Screens in order: TRPML1 inh | CtBP-E1A blk | Six1-Eya2 inh | TRPV1 PAM | TRPML1 agonist | D2 PAM
COC(=O)c1ccc(/C=C2\N=C(SC)SC2=O)cc1 reads 1 | 1 | 2 | -11 | 0.5 | -3
Cn1c(CN2CCOCC2)nnc1SCC(=O)Nc1ccc2c(c1)OCCO2 reads -17 | 4 | 1 | -18 | 0.8 | -2
O=C(NCc1ccco1)C(c1ccccc1)N(CC1CCCO1)C(=O)Cn1nnc2ccccc21 (stereo not given) reads -3 | -5 | 0 | 3 | -0.7 | -6
O=C(c1cc(C2CC2)on1)N1CCOCC1 reads -2 | -2 | 3 | . | -0.5 | -4

(list continues)
SMILES	TRPML1 inh	CtBP-E1A blk	Six1-Eya2 inh	TRPV1 PAM	TRPML1 agonist	D2 PAM
CCOC(=O)c1cnc2c(C(F)(F)F)cccc2c1N1CCN(C)CC1	-8	5	6	-18	1.2	-12
COc1ccc([C@H]2C[C@@H](O)C[C@@H](CCn3cc(-c4ccccc4)nn3)O2)cc1	.	3	-2	.	-0.4	.
CCC(C)C(NC(=O)CCC(=O)OCC(=O)[C@@]1(O)CCC2[C@@H]3CCC4=CC(=O)C=C[C@]4(C)C3[C@@H](O)C[C@@]21C)C(=O)O (stereo not given in full)	-3	.	5	1	0.8	-3
O=C(c1noc2c1CCCC2)N1CCOCC1	-28	5	7	9	-0.2	-10
O=C(COC(=O)/C=C/c1ccc(C(F)(F)F)cc1)NCc1ccco1	11	2	-1	0	0.4	-6
CCN(C(=S)NC(=O)c1ccccc1Br)C1CCCCC1	8	5	1	-19	3.4	-9
COc1ccc(OC)c(NC(=O)C2CCCCC2C(=O)O)c1 (stereo not given)	-7	3	2	2	-0.7	6
Cn1c(=O)c2c(n(Cc3ccccc3)c1=O)NC(=O)C2CC(=O)NCc1cccc(Cl)c1 (stereo not given)	7	-2	0	-4	-0.2	-15
C[C@H]1COc2cccc(N3CCC[C@@H]3CO)c2S(=O)(=O)N1	.	1	-5	.	0.0	.
O=C(CNc1ccccc1C(=O)O)c1ccccc1	-3	-3	-6	10	-0.6	-24
COC(=O)CC(NC(=S)NC(=O)c1ccccc1)c1ccc(Br)cc1 (stereo not given)	2	.	-16	11	2.1	-7
Cc1ccc([C@H]2C[C@@H](n3cc(C4CC4)nn3)[C@H](O)CN2CC2CCCCC2)cc1	3	0	-15	.	-0.7	-4
CCCOc1cccc(C(=O)NCCNC(=O)c2ccccn2)c1	1	1	-6	4	2.5	-1
C=C1CCC[C@]2(C)C[C@H]3OC(=O)C(CNC(CC)CO)[C@H]3CC12 (stereo not given in full)	-2	7	9	3	-1.1	-2
NS(=O)(=O)c1cccc(NC(=O)COC(=O)CC2CC3CCC2C3)c1 (stereo not given)	-6	2	4	5	2.1	-5
Cc1cc(C(=O)NNc2ccc(F)cc2)no1	60	8	6	?	-0.3	-18
COc1ccccc1-n1cc(C(=O)NCC(=O)NCc2ccc(F)cc2)c2ccccc2c1=O	20	-2	-2	-1	-0.1	-14
CN(C(=O)c1cccc(NC(=O)Cc2ccc(NC(=O)C3CCCN(C(=O)c4ccccc4)C3)cc2)c1)C1CCC1 (stereo not given)	18	2	1	.	3.5	2
Cc1ccc(OC(=O)c2cccnc2)cc1	27	7	2	-29	-0.5	0
CCOC(=O)C1=CN(Cc2ccco2)S(=O)(=O)NC1c1ccc(C(F)(F)F)cc1 (stereo not given)	15	3	4	.	0.2	.
CC(C)CNC(=O)c1c(N)n(/N=C/c2ccccn2)c2nc3ccccc3nc12	-7	0	0	-2	1.0	-9
COc1cc(OC)c(C(=O)Nc2ccc(C(=O)c3ccccc3)cc2)cc1OC	0	-6	-8	5	-0.7	5
O=C(CN1C(=O)NC2(CCCCC2)C1=O)NCc1cccs1	-13	-19	1	-4	0.6	-8
CC(N)(C(=O)O)c1cccc(OCc2cccc(Cl)c2)c1 (stereo not given)	7	47	23	19	0.5	6
Cc1cccc(NC(=O)CNC(=O)Cn2ncc(Cl)c(Cl)c2=O)c1C	3	-22	-12	.	0.0	-14
COc1ccc(CNC(=S)Nc2ccc(Br)cc2)cc1	0	-2	-8	0	0.2	-9
CCOC(=O)c1csc(-c2csc(CCNC(=O)c3ccccc3)n2)n1	17	3	-17	.	-0.8	-6
N#CC1(NC(=O)CSc2nc3ccccc3s2)CCCCC1	11	-5	10	-25	0.3	1
CCCCn1nnnc1C(c1cc2ccccc2o1)N1CCN(C(=O)OC(C)(C)C)CC1 (stereo not given)	.	-7	6	.	0.0	.
CN1/C(=N\O)c2cccc3cccc1c23	8	8	23	-2	-0.3	23
COCCNC(=O)Cn1nc(-c2ccccc2C)ccc1=O	11	-1	5	18	0.5	-4
COc1c(F)c(F)c(C(=O)Nc2c(C)cc(Br)cc2C)c(F)c1F	-5	2	10	12	-0.4	-4
N#C/C(=C\c1cccc(Cl)c1)c1n[nH]c(Cn2cncn2)n1	-4	-5	-11	3	-0.7	10
COC(=O)c1scc2c(Oc3ccccc3)cc(C(F)(F)F)nc12	62	4	9	20	-1.3	-6
COc1cccc(N2[C@@H](CC(C)=O)c3ccc(/C=C/C(C)=O)cc3S2(=O)=O)c1	16	3	0	.	-0.2&-0.8	0
COc1ccc(C2N(c3cc(Cl)ccc3OC)C(=O)C3CCCN32)c(OC)c1 (stereo not given)	12	1	0	-10	0.4	-5
OCC1(Cc2ccccc2)CCCN(Cc2c[nH]c3ccccc23)C1 (stereo not given)	8	3	-4	3	0.5	-18
Cn1nnnc1SCC(=O)NCc1ccc2c(c1)OCO2	4	9	5	28	-0.6	-5
Cc1cc(C)nc(SCC(=O)N2CCCCC2)n1	-15	3	6	?	-0.4	-1
CC1Sc2ccc(C(=O)NCc3cccc(C(F)(F)F)c3)cc2NC1=O (stereo not given)	7	-15	2	-8	2.6	-2
CC(=O)c1cc(CN2CCN(C(C)C)C(CCO)C2)cs1 (stereo not given)	-11	0	-10	6	0.2	-1
Cc1ccc(S(=O)(=O)NCC(=O)OCC(=O)N(CCC#N)c2ccccc2)cc1	-3	2	4	.	0.6	-5
CCn1ccnc1CN(C)Cc1cn(-c2cc(C)ccc2C)nc1-c1ccccc1	63	-14	-15	-7	3.2	-16
O=C(Nc1ccccc1)C1CCN(C(=O)c2ccc(Br)cc2)CC1	4	1	-1	-23	-0.5	-12
